Screening results (PubChem)
Calb biofilm kill – mixture kills Candida albicans biofilm cells; inhibition, % at 7.6 µM; C. albicans biofilm persisters + clotrimazole, fluorescence viability; primary screen in compound mixtures of four per well; AID 1242; 120,000 tested, 0.02% active;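 active = inhibition above 30.3% in the primary screen of four-compound pools, then above 30% when the compound was retested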;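 note: compounds exposed to preformed 24 h biofilms for 48 h; the number belongs to the whole pool; some results filed as inactive read as strong as hits; inactives centre near 12; 0% = biofilm with clotrimazole alone and 100% = kill control; retested singly at about 60 µM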
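Test system: C. albicans biofilms. Buffer or medium: RPMI/MOPS medium, pH 7.0. Timing: 48 h compound exposure at 37 °C. Technique: Alamar Blue fluorescence. Evaluation: percent inhibition of biofilm viability.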
* = called active by the depositor. These rows are one share of the data; the hit share may differ from the screen's.

SMILES | Calb biofilm kill
Clc1ccc(C2[C@H]3CN(Cc4ccc(-c5ccccc5)cc4)[C@H](c4ccccc4)C34CC2(c2ccccc2)C4)cn1 (stereo not given in full) | 13
COc1ccc(C(=O)OCC(=O)Nc2ccc(Cl)cn2)cc1 | 13
O=C(N/N=C/C1CC=CCC1)c1cc2ccccc2cc1O (stereo not given) | 8
Cc1ccc(S(=O)(=O)NC(=O)NN2CCCCCC2)cc1 | 16
c1ccc2c(-c3[nH]ncc3CNCCCn3ncc4ccccc43)cccc2c1 | -1
Cc1cccc(NC(=O)Cn2c(O)c(N=NC(N)=S)c3ccccc32)c1 | 6
CC(=O)c1cc2c(cc1NC(=O)c1ccc(C)cc1)OCO2 | 16
CCCCC1NC(=S)N(C2CCCCC2)C1=O (stereo not given) | 14
CCOc1ccc(NC(=S)N/N=C(\C)Cc2ccc(OC)cc2)cc1 | 16
O=C(Nc1nc(-c2ccccn2)cs1)C1CC(=O)N(c2ccc3c(c2)OCCO3)C1 (stereo not given) | 12
Cc1cccc(-c2cc3c(N=O)c4ccccc4c-3n[nH]2)c1 | -1
N/C(=N\OC(=O)CCCOc1ccccc1)c1cccc([N+](=O)[O-])c1 | 12
O=C(/C=C/Nc1ccc(F)cc1Br)c1ccccc1 | 2
S=c1[nH]nc(-c2cc(-c3ccccc3)n[nH]2)n1/N=C/c1ccc(Cl)cc1 | 23
CN(C)S(=O)(=O)c1ccc(C(=O)NC2CCCc3ccccc32)cc1 (stereo not given) | -8
COC(=O)c1ccc(/C=N/Nc2nc(C)c(C)s2)cc1 | -10
COc1cc(CNC2CCCCC2OC)cc(OC)c1 (stereo not given) | 9
O=C(O)COc1ccccc1/C=N/NC(=O)CSc1nc2ccccc2n1Cc1ccccc1 | 14
Cc1ccccc1OCC(=O)N/N=C/c1ccc(N(C)C)cc1 | 8
Cn1cnnc1SC1CCCCC1NS(=O)(=O)c1ccc(Cl)cc1 (stereo not given) | 11

A different layout for 4 compounds above.
mol: CCCCC1NC(=S)N(C2CCCCC2)C1=O (stereo not given)
  Calb biofilm kill: 14
mol: CCOc1ccc(NC(=S)N/N=C(\C)Cc2ccc(OC)cc2)cc1
  Calb biofilm kill: 16
mol: O=C(Nc1nc(-c2ccccn2)cs1)C1CC(=O)N(c2ccc3c(c2)OCCO3)C1 (stereo not given)
  Calb biofilm kill: 12
mol: Cc1cccc(-c2cc3c(N=O)c4ccccc4c-3n[nH]2)c1
  Calb biofilm kill: -1

The list continues:
SMILES | Calb biofilm kill
COc1ccc(OC)c(NC(=O)C2=C(C)NC(=O)NC2c2cccs2)c1 (stereo not given) | 9
COc1ccc(NC(=S)NCCCN2CCOCC2)cc1 | 10
OCCNc1nc2nonc2nc1NCCO | 10
O=S(=O)(c1cccc2nonc12)N1CCCCCC1 | 7
CCN(CC(=O)Nc1ccc(NC(C)=O)cc1)CC(=O)Nc1ccccc1C(=O)c1ccccc1 | 5
O=c1c2cc(-c3ccccc3)sc2nc2n1N=C(c1ccccc1)CS2 | 11
Cc1cc(C)c2nc(-c3ccccn3)cc(C(=O)NCCc3ccc(S(N)(=O)=O)cc3)c2c1 | 15
CC(C)(C)[C@H]1C=C(C(=O)N2CCN(Cc3ccc4c(c3)OCO4)CC2)O[C@@H](OCCCCO)C1 | 0
COCCCNC(=O)COc1ccc(S(=O)(=O)NCc2ccccc2)cc1Cl | 21
CCc1nnc(NS(=O)(=O)c2ccc(N/C=C/C(=O)c3ccc(C)cc3)cc2)s1 | 3
CCN(C(=O)COC(=O)c1cccc(NS(=O)(=O)c2ccc(F)c(F)c2)c1)C1CCS(=O)(=O)C1 (stereo not given) | 8
CCCNC(=O)OCC12CC3CC(CC(C3)C1)C2 | 16
O=C(NC1CCCC1)c1ccccc1OCc1ccccc1 | 11
COc1ccc(NC(=O)CSc2n[nH]c(C(C)C)n2)c([N+](=O)[O-])c1 | -11
CCC(=O)N(CCc1ccc(OC)c(OC)c1)Cc1cc2ccc(C)cc2n2nnnc12 | 3
Cn1nc(C(=O)Nc2nc3ccccc3[nH]2)c2ccccc2c1=O | -6
CC(NC(=O)COC(=O)CCc1nc2ccccc2c(=O)[nH]1)c1ccccc1 (stereo not given) | 15
O=c1cc(-c2ccccc2)nc(SCc2ccc(F)cc2)[nH]1 | 18
O=C(CSc1nnnn1Cc1ccccc1)NC1CCCCC1 | 14
CCc1ccc(C2NC(=S)NC3=C2C(=O)CCC3)cc1 (stereo not given) | 8

(listing goes on)
SMILES | Calb biofilm kill
CCn1c(SCC(=O)N/N=C/c2ccc(C)o2)nnc1-c1ccc(C(C)(C)C)cc1 | 12
CN=c1c([N+](=O)[O-])nn(-c2ccc3c(c2)OCCO3)n1O | 7
CC(C)C(=O)N=C1NC(=O)CS1 | 19
CN(C)c1cc(NC(=O)CN2CCCC2)c2ccccc2n1 | -4
O=C(O)c1ccc(NC(=O)c2cn(-c3ccccc3)nc2-c2ccc(Br)cc2)cc1 | 0
CCc1ccc(-n2c(=O)c3ccccc3n(CC(=O)C(C)(C)C)c2=O)cc1 | -3
O=C1CCc2cc(S(=O)(=O)NCCCC(=O)N3CCN(Cc4ccc5c(c4)OCO5)CC3)ccc2N1 | 1
O=C(COC(=O)c1ccc(Cl)nc1)NCc1ccco1 | 6
O=C(/C=C/NCc1ccc(F)cc1)c1ccccc1 | 6
COc1ccc(/C=C/C(=O)OCC(=O)Nc2ccc(Cl)c(S(=O)(=O)N(C)C)c2)cc1OC | 14
COc1ccc(CC2SC(=Nc3ccc(F)cc3)NC2=O)cc1 (stereo not given) | 15
Cn1cccc1/C=C1\SC(=Nc2cccc(O)c2)NC1=O | 13
c1ccc(CCCCNCC2COc3ccccc3O2)cc1 (stereo not given) | 8
Cc1cc2nc(C3CCN(C(=S)NCC(C)C)CC3)[nH]c2cc1C | 15
COc1ccc(Nc2ccnc(Nc3ccc(OC)cc3)n2)cc1 | 13
COCCSc1ccccc1C(=O)Nc1cc(C)ccn1 | 10
O=C(N/N=C/C=C/c1cccc([N+](=O)[O-])c1)C(O)c1ccccc1 (stereo not given) | 23
CCn1cc(C(=O)OCC(=O)Nc2c(C)cccc2C)c(=O)c2ccc(C)nc21 | 1
CN1C(=O)C(O)(CC(=O)c2cccnc2)c2ccccc21 (stereo not given) | 6
CCCC(=O)C1=C(O)C(C(=O)OC)C(C)(C)CC1=Nc1ccc(Br)cc1 (stereo not given) | 19

Random excerpt: 3 records from the list, in no set order.
SMILES | Calb biofilm kill
COCCSc1ccccc1C(=O)Nc1cc(C)ccn1 | 10
O=C(O)c1ccc(NC(=O)c2cn(-c3ccccc3)nc2-c2ccc(Br)cc2)cc1 | 0
COc1ccc(CC2SC(=Nc3ccc(F)cc3)NC2=O)cc1 (stereo not given) | 15

(further entries)
SMILES | Calb biofilm kill
Cc1ccc(NC(=O)CSc2nnc(NC(=O)c3ccc(S(=O)(=O)N4CCOCC4)cc3)s2)cc1 | 15
CCC(C)n1c(=S)[nH]c2ccccc2c1=O (stereo not given) | -2
Cc1ccc(S(=O)(=O)CCC(=O)OCc2ccccc2F)cc1 | 13
O=C(c1ccccc1)c1ccc(OCC(O)CNC2CCCc3ccccc32)cc1 (stereo not given) | 6
O=c1[nH]c2cc3c(cc2cc1CN(CCN1CCOCC1)C(=S)NCC1CCCO1)OCO3 (stereo not given) | 9
Cc1ccc(-c2nnn(CC(=O)N(Cc3ccco3)C(C(=O)NC(C)(C)C)c3ccncc3)n2)o1 (stereo not given) | 10
O=C(Oc1cccc(NC(=O)c2cccs2)c1)c1cccc(S(=O)(=O)N2CCCC2)c1 | 13
N#C/C(=C\Nc1ccc(Cl)cc1)S(=O)(=O)c1ccccn1 | 14
CCCN1CCN(C(=O)Nc2cccc(C(F)(F)F)c2)CC1 | 16
CCOC(=O)Cn1cc(/C=C/[N+](=O)[O-])c2ccccc21 | 15
CCOC(=O)N[C@H](Cc1c[nH]c2ccccc12)C(=O)NC1CC1 | -8
CC(=O)c1ccccc1NC(=O)CC1(CC(=O)O)CCCCC1 | -4
Cc1ccc2nc(C)cc(C(=O)N3CCCC(CO)(Cc4ccccc4C)C3)c2c1 (stereo not given) | 3
COc1ccc(-c2nc(NC(=O)c3nc4nccc(C)n4n3)sc2C)cc1 | 5
Cc1cc(/C=C(\C#N)C(=O)NCCc2c[nH]c3ccccc23)c(C)n1C | 7
COc1cc(S(=O)(=O)Nc2cc(C)cc(C)c2)ccc1F | 9
CC(CCc1ccccc1)NC(=O)CNC(=O)COc1ccccc1 (stereo not given) | 21
Cc1cc(C(=O)COC(=O)CNC(=O)c2ccc(Cl)c(Cl)c2)c(C)n1Cc1ccco1 | 13
NS(=O)(=O)c1ccc(CNC(=S)Nc2ccc(F)c(Cl)c2)cc1 | 14
O=c1c(Cc2ccc(F)cc2)c(O)ccn1CC1CCCO1 (stereo not given) | 6

Reprinted from the listing (two entries):
SMILES | Calb biofilm kill
O=C(Oc1cccc(NC(=O)c2cccs2)c1)c1cccc(S(=O)(=O)N2CCCC2)c1 | 13
N#C/C(=C\Nc1ccc(Cl)cc1)S(=O)(=O)c1ccccn1 | 14

The list continues:
SMILES | Calb biofilm kill
COc1cccc(/C=C/C(=O)OCC(=O)NCCC2=CCCCC2)c1 | 16
Cc1ccccc1/C=C\c1nc2ccccc2c(=O)n1Cc1ccccc1 | -11
C#CCOCCOCCOCCNc1nc(N2CCN(C(=O)C([C@@H](C)CC)n3cc(C(N)CO)nn3)CC2)nc(N2CCN(C(=O)[C@H](CCC(=O)O)n3cc(C(N)[C@H](C)CC)nn3)CC2)n1 (stereo not given in full) | 1
O=C(Cc1ccccc1)Nc1c(C(=O)N2CCCCCC2)cnn1-c1ccccc1 | 13
C/C(CCN1CCCCc2nc(C)c(C)cc21)=N\O[C@@H](C)c1cn([C@H](CO)Cc2ccccc2)nn1 | 6
CCCNC(=O)c1nn2cc(Br)cnc2c1Br | 0
O=[N+]([O-])c1ccc(S(=O)(=O)N2CCN=C2SCc2cccnc2)cc1 | 3
COc1c(C)cc(Br)cc1C(=O)Nc1ccc(Cc2ccncc2)cc1 | 3
CCCC(=O)NC(=S)Nc1ccc(NC(=O)C(C)C)c(OC)c1 | 8
COc1ccc(-c2csc(C3=C(O)CN(CCCN4CCCC4=O)C3=N)n2)cc1OC | -5
Clc1ccc(Cn2nc(-c3ccccc3)nc2-c2ccccc2)cc1 | 7
O=C(NC1=C(NC2CCS(=O)(=O)C2)C(=O)c2ccccc2C1=O)c1ccccc1 (stereo not given) | 7
Cc1ccc(-c2nnc(SCC(=O)NC3CC3)n2N)cc1 | 13
CN(C)S(=O)(=O)N1CCC(Oc2ccc(C(=O)NCc3cnn(C)c3)cc2)CC1 | 2
O=C(O)c1ccc(N/N=C/c2cccc(F)c2)cc1 | 4
C#CCCCc1nc2ccccc2c(=O)n1N | 16
O=C(O)c1ccc(Oc2c(C(F)(F)F)oc3cc(O)ccc3c2=O)cc1 | 8
Cc1ccc(S(=O)(=O)CCc2nnc(NC(=O)c3ccco3)s2)cc1 | 4
COC(=O)c1ccc(NC(=O)Cn2nc(C)cc2C)cc1 | 9
CCN(CC)c1ccc(/C=N/NC(=S)NC)c(O)c1 | 16

A few values from the results shown:
In Calb biofilm kill, CCCN1CCN(C(=O)Nc2cccc(C(F)(F)F)c2)CC1 reads 16
In Calb biofilm kill, CC(CCc1ccccc1)NC(=O)CNC(=O)COc1ccccc1 (stereo not given) reads 21
In Calb biofilm kill, O=C(Nc1nc(-c2ccccn2)cs1)C1CC(=O)N(c2ccc3c(c2)OCCO3)C1 (stereo not given) reads 12
In Calb biofilm kill, COc1ccc(CC2SC(=Nc3ccc(F)cc3)NC2=O)cc1 (stereo not given) reads 15

Next part:
SMILES | Calb biofilm kill
CC1(C)CC(Nc2ccc(C(F)(F)F)cc2[N+](=O)[O-])CC(C)(C)N1 | 2
Cc1ccc(N2N=C(c3ccc(Br)cc3)CCC2=O)cc1 | 7
COc1ccc(Cc2noc(-c3ccccc3)n2)cc1OC | 12
Cc1csc(SCC(=O)NC(=O)C2CCCCC2)n1 | -2
O=C1[C@@H]2[C@@H]3C[C@@H]([C@H]4ON=C(c5ccc(Cl)cc5Cl)[C@@H]34)[C@@H]2C(=O)N1C1CCCCC1 | 18
CCOC(=O)c1ccccc1NC(=O)c1cccc([N+](=O)[O-])c1 | 10
O=C(CSc1nc2[nH]ncc2c(=O)[nH]1)c1ccc(Cl)cc1 | -2
Cc1onc(-c2ccccc2)c1CNS(=O)(=O)c1ccccc1 | 20
Cc1ccc(O)c(C(=O)CC(=O)c2ccccc2Cl)c1 | 29
COc1ccc(CCC(=O)Nc2ccc(C)c([N+](=O)[O-])c2)cc1 | 21
CCN(CC)c1ccc(/C=N/O)cc1 | 7
CN(c1ccc(C(=O)Nc2ccccc2C(=O)N2CCOCC2)cc1)S(C)(=O)=O | 4
Cc1ccc(C)c(N(CC(=O)Nc2ccc(-c3nc4ccc(C)cc4s3)cc2)S(C)(=O)=O)c1 | 21
O=C(O)Cc1ccc(O)c(O)c1 | 15
CCN(CC)S(=O)(=O)c1ccc(Oc2ccccc2OC)cc1 | 16
O=C(Cc1ccc2c(c1)OCCO2)N1CCN(c2ccccc2)CC1 | 8
COc1ccc(C(=O)C2CCN(C(=S)NCC3CCCO3)CC2)cc1 (stereo not given) | 16
CCOC(=O)c1cc(-c2ccc(OC)cc2)n(CCC(=O)NC2CCN(Cc3ccccc3)CC2)c1C | 15
Cc1c(C)n(CC(O)CN(CCO)CCO)c2ccccc12 (stereo not given) | 21
Cc1ccc(C(=O)CNc2ccc(F)cc2)cc1 | -7

More results.
SMILES | Calb biofilm kill
Cc1ccc(NC(=O)CSc2ncc3ccccn23)cc1 | 16
Cc1cccc(NC(=S)Nc2ccccn2)c1 | 3
Cc1cccc2cc(C3CC(c4ccco4)=NN3S(C)(=O)=O)c(Cl)nc12 (stereo not given) | -1
CCOc1ccc(-c2csc3ncn(-c4ccc(OC)cc4)c(=O)c23)cc1 | 25
COc1ccc(NC2CC(=O)N(c3ccc(C(=O)O)cc3)C2=O)cc1 (stereo not given) | 6
